# TRPML1 agonist = activates the human TRPML1 channel; Q9GZU1; TRPML1-expressing cells, Ca2+ dye fluorescence, FDSS; host cell line not named in the record; reference of the full effect not given here; activation, % (no concentration beside the values); hit rate 0.12% among 410,000; AID 624414; in the data active = activation above about 50%; inconclusive = about 30% to 50%; inactive = below about 30%; note: 0% is about no effect; the text of the record puts the active cut at 80%
# Target sequence (Q9GZU1 whole entry, looked up): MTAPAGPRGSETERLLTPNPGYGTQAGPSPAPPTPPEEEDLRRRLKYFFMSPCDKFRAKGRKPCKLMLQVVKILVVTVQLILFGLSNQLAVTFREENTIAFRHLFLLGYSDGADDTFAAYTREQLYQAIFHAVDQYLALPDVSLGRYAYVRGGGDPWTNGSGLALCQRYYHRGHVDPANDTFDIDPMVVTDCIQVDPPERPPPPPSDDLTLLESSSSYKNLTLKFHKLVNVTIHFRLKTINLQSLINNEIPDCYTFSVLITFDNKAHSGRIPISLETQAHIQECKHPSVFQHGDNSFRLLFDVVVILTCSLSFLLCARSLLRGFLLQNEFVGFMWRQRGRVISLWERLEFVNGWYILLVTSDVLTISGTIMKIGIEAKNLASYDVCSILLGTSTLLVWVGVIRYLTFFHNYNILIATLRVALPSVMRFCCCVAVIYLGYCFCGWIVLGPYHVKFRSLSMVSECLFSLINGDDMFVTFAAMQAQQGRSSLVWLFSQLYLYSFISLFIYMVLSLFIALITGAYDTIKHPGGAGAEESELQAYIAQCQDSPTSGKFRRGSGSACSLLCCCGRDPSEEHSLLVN
#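 Agonist activity was taken from a 110 s kinetic Ca2+ dye read on the FDSS after pinning compounds onto TRPML1-DL cells. The cells were seeded at 1,500/well with Tet inducer, incubated about 16 h, then dye-loaded at room temperature.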
# TRPV1 potentiator = enhances activation of the human vanilloid receptor TRPV1; TRPV1-expressing cells, Fluo-8 calcium influx, capsaicin EC20 potentiation; host cell line not named in the record; control for the full effect not named in the record; potentiation, % at 8.33 µM; hit rate 0.02% among 320,000; active means potentiation above 80%; inconclusive means 30% to 80%; inactive means below 30%; note: 0% is about no effect
#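 TRPV1-expressing cells were cultured overnight at 35.5C and loaded with Fluo-8 calcium dye for 40 to 90 min at room temperature. After a 10 s baseline, compound was added and calcium influx was read kinetically for 3 min (ex 480/em 520 nm).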
# Menin-MLL FL inh = inhibitors of human menin-MLL interaction, wild-type MLL peptide. FP activity change, % at 61.4 µM. 290,000 tested, under 10 active. AID 1766. Fluorescence polarization, fluorescein-MLL peptide displacement from menin; inconclusive = falling polarisation curve, or a change in total fluorescence; inactive = total fluorescence flat and polarisation flat or rising; no compound was filed as active; the % refers to the polarisation; negative = inhibition;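 note: % of control where 0% means no effect; inhibitors lower the polarisation; unlabelled MLL peptide was the positive control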
# TRPML1 inh = inhibitors of human TRPML1 channel; TRPML1-inducible cells, Ca2+ dye fluorescence, FDSS; active compounds read low; inhibition of EC80 agonist-evoked calcium signal; Q9GZU1; hit rate 0.02% among 390,000; activity change, negative = inhibition, % (no concentration beside the values); in the data active means activity change below about -50%; inconclusive means about -30% to -50%; inactive means above about -30%;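 note: stimulus is agonist 54-4 at its EC80 concentration; % is set by controls: 0 for no effect and ±100 for the full control effect; compound concentration not given in the record; the text of the record puts the active cut at -80%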
#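 TRPML1-DL cells, Tet-induced overnight (~16 h, 37 °C) at 1,500 cells/well, were loaded with Ca8 no-wash dye plus quencher for 45-90 min at room temperature. Compounds were pinned during FDSS kinetic reading; agonist 54-4 at EC80 (4 uM final) then added.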
# PINK1 expr mod = modulators of PINK1 expression | AID 624263 | Potency, µM (series often up to 76.6 µM), for inactives: at the top dose activation (PINK1 increase), usual class: activators | PINK1 immunofluorescence, high-content cytometry, 24 h | hit rate 0.2% among 410,000; active = well fitted activation curve with a large enough effect; inconclusive = small, poorly fitted or top-dose-only effect; inactive = flat fitted curve, though single readings scatter; cell line not stated here;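 note: potency is the fitted concentration of half-maximal effect; % of control where 0% means no effect; nearly all actives have a fitted effect of over 65% in size; a mitochondrial uncoupler was the plate control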
#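 PINK1 protein, normally rapidly degraded, was detected by immunofluorescence after 24 hour compound treatment of a stable cell line. Titration data (5 concentrations) came from laser-scanning cytometry, with CCCP-treated wells as controls.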
# Sfp inh = Sfp phosphopantetheinyl transferase inhibition; Q9F4F7; Biochemical Sfp PPTase activity, qHTS; Potency, µM, for the others: max response, negative = inhibition, most hits filed as inhibitors; hit rate 3.5% among 310,000; active = well fitted inhibition curve with a large enough effect; inconclusive = small, poorly fitted or top-dose-only effect, or another doubt; inactive = no such curve, though single readings can be large or run the other way;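 note: the enzyme is Sfp with the accession as filed and its product quenches rhodamine fluorescence; potency is the fitted concentration of half-maximal effect; 0% = enzyme reaction without inhibitor and -100% = no enzyme wells; top concentration of the series not given in the record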
#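 With Hepes-Na pH 7.6 buffer containing 10 mM MgCl2, Sfp (15 nM) modified BHQ-2-YbbR (12.5 uM) using rhodamine-CoA (5 uM). Two reads 30 minutes apart at 525/598 nm yielded each well's rate.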
# ClpP mod = qHTS Assay for Activators of ClpP. purified B. subtilis ClpP, FRET peptide cleavage, 20 min. Potency, µM (series often up to 57.5 µM), for the others: at the top dose activity change, negative = active. hit rate 1.9% among 340,000. AID 651965, 2013; active = well fitted falling curve with a large enough effect; inconclusive = small, poorly fitted or top-dose-only effect; inactive = no such curve, though single readings can be large or run the other way; note: potency is the fitted concentration of half-maximal effect; the source files actives as falling curves though it sought activators and does not explain the sign; nearly all actives have a fitted effect of over 65% in size; many hits overshoot -100%
# Target sequence (P80244 whole entry, looked up): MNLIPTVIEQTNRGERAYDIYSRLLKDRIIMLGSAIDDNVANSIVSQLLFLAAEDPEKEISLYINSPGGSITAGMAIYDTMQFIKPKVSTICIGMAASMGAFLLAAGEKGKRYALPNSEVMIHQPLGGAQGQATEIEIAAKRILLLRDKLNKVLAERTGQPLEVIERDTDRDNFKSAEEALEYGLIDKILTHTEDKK
#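 ClpP 10 microg/mL final, pH 8 Tris/KCl buffer with BSA, glycerol, Tween-20; compound pinned in; FRET-FV substrate; RT 20 min; Ex320/Em430; ΔFRET vs ADEP 5.8 microM, DMSO, no enzyme.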
# The depositor's hits bear a star; ? = inconclusive; . = no result given; & = joins results of further samples; [ ] = dose if it differs, or a comment.
SMILES,TRPML1 agonist,TRPV1 potentiator,Menin-MLL FL inh,TRPML1 inh,PINK1 expr mod,Sfp inh,ClpP mod
O=C(NCc1ccco1)C1CCN(C(=O)Cc2ccccc2)CC1,-0.1,-18,1.5,-10,0.9%,9%,?
O=C(N/N=C/c1cccc2ccccc12)c1ccc(CN2CCOCC2)cc1,-0.3,-5,1.0,5,1.1%,9%,-8.7%
CCC(c1nnnn1-c1c(C)cccc1C)N1CCN(c2ccc(C(F)(F)F)cc2[N+](=O)[O-])CC1 (configuration not stated),-0.6,.,.,.,2.7%,.,-3.4%
CC(C)(C)c1ccc(C(=O)NNC(=S)NC(=O)c2cccnc2)cc1,1.2,-1,-12,-3,-3.1%,9%,.
O=C(CSc1nnc(NC(=O)c2ccco2)s1)Nc1ccc(F)cc1,0.0,2,2.2,-4,-1.3%,-14%,0.0%
CCN(CC1CCCO1)C(=O)c1cc(COc2cc(C)c(Cl)c(C)c2)on1 (configuration not stated),-0.7,-11,2.7,7,1.8%,-7%,-1.2%
COc1ccccc1N1CCN(C(CNS(=O)(=O)c2cccs2)c2cccnc2)CC1 (configuration not stated),0.2,-2,-1.9,13,0.8%,1%,-0.3%
O=C(O)C[C@H]1c2cc(C(F)(F)F)ccc2S(=O)(=O)N1Cc1ccccc1,-0.3&-0.9,.,.,-8,-0.4%,.,-6.2%&0.9%
COc1ccc(C(=O)NCCCNC(=O)c2cc3ccccc3[nH]2)cc1OC,1.4,-8,4.2,9,1.2%,5%,-19%
O=C(Nc1cccc(F)c1)/C(=C/c1ccco1)NC(=O)c1ccco1,0.3,2,.,-2,0.8%,?,-2.0%
C/C(Cc1ccccc1)=N\NC(=O)CNC(=O)c1ccc(Cl)cc1Cl,-0.4,2,-0.7,-20,-0.5%,12%,.
Nc1nncn1C(=O)c1cccs1,-0.9,1,0.4,-9,-0.7%,-6%,-0.8%
CCCCC(=O)Nc1ccc(NC(=O)CCCC)nc1,-1.2,5,-1.2,-2,-0.1%,10%,2.5%
O=C(COc1ccc(Cl)cc1)Nc1ccc2nc(SCC(=O)N3CCOCC3)sc2c1,2.7,.,.,-1,0.6%,.,-1.8%
Cc1ccccc1CS(=O)(=O)c1cnc2ccccc2n1,0.6,-7,-1.0,2,1.8%,2%,-3.6%
CCN(Cc1nc2cc(OC)c(OC)cc2c(=O)[nH]1)C(=O)c1ccc(S(=O)(=O)N(C)C)cc1,-0.5,8,1.2,5,-1.6%,-22%,0.5%
NC(=O)c1ccsc1NC(=O)c1ccc(N2CCCC2=O)cc1,3.5,5,18,28,0.9%,12%,-3.4%
Cc1ccc(NC2CCCN(C(=O)CCc3scnc3C)C2)cc1C (configuration not stated),0.0,2,.,-2,-0.2%,4%,1.6%
Cc1oc(-c2cccc(Cl)c2)nc1CN1CCCC(C(=O)NCCCN2CCOCC2)C1 (configuration not stated),0.3,-2,3.6,30,7.8%,1%,-2.3%
COCCOC(=O)c1[nH]c2c(c1C)C(=O)CC(c1ccco1)C2 (configuration not stated),0.6,5,4.7,-16,9.3%,-26%,-1.2%
COc1ccc(OC)c(C(=O)NC(CC(N)=O)c2ccc(NCCN3CCOCC3)c([N+](=O)[O-])c2)c1 (configuration not stated),-0.7,15,-1.5,27,1.0%,15%,3.6%
COc1ccccc1-c1n[nH]c(=S)n1N,-0.1,2,-1.4,7,-0.6%,45µM*,-4.2%
Cc1nc2cc(NC(=O)NCCC3=CCCCC3)ccc2o1,1.1,-9,-1.4,26,6.1%[38.3 µM],9%,-0.5%
CCc1ccc(/C(C)=N/NC(=O)c2c[nH]c3ccccc23)s1,-0.3,20,.,-9,2.0%,-5%,92%
O=C(OCc1cc(=O)n2cc(Br)ccc2n1)C1COc2ccccc2O1 (configuration not stated),0.6,-7,4.0,2,-0.4%,10%,-16%

# An excerpt of these results, with values under each structure:
# Under each structure – TRPML1 agonist | TRPV1 potentiator | Menin-MLL FL inh | TRPML1 inh | PINK1 expr mod | Sfp inh | ClpP mod
- Cc1ccccc1CS(=O)(=O)c1cnc2ccccc2n1
→ 0.6 | -7 | -1.0 | 2 | 1.8% | 2% | -3.6%
- O=C(NCc1ccco1)C1CCN(C(=O)Cc2ccccc2)CC1
→ -0.1 | -18 | 1.5 | -10 | 0.9% | 9% | ?

# Later entries.
SMILES,TRPML1 agonist,TRPV1 potentiator,Menin-MLL FL inh,TRPML1 inh,PINK1 expr mod,Sfp inh,ClpP mod
O=C(CCNC(=O)c1ccc([N+](=O)[O-])cc1)Nc1ccc(F)c(F)c1F,-0.3,-9,0.2,17,-3.3%,6%,.
C/C(CC(=O)Nc1ccc(Cl)c(Cl)c1)=N\NC(N)=S,-0.5,-5,0.2,7,-1.5%,?,-0.9%
COc1ccc(CC(N)c2csc(Nc3ccc(C(C)=O)cc3)n2)cc1 (configuration not stated),0.1,.,.,.,0.2%,.,-8.4%
COc1ccc(Nc2nn3c(=O)c4cc5c(cc4nc3s2)OCO5)c(OC)c1,2.0,.,.,-6,2.0%,.,2.1%
CCc1ccc(Oc2nnnn2-c2ccc(C(N)=O)cc2)cc1,0.7,4,-1.2,-19,1.7%,7%,-4.1%
O=C1CSC(=S)N1c1cccnc1,2.0,?,18,-7,2.5%[38.3 µM],?,1.1%
Cc1ccc(NC(=O)c2ccccc2OCC(=O)c2ccc(F)cc2)cc1,1.4,-12,.,-3,12%,19%,-2.3%
CCOC(=O)N1CCC(=NNC(=O)c2ccccc2F)CC1,-0.2,-20,5.6,-7,8.3%,-3%,-0.5%
CC(=O)c1ccc(NC(=O)CCn2c(=S)oc3ccccc32)cc1,3.1,-3,-1.0,-4,1.7%,15%,0.1%
Nc1nc(CSc2ccc(Cl)cc2)nc(N2CCCCC2)n1,0.8,3,-1.4,12,10%,17%,.
Cc1nn(-c2ccc(Cl)cc2)c2sc(C(=O)N3CCN(C(=O)c4ccco4)CC3)cc12,.,21,5.6,.,.,2%,.
CC(C)Sc1nc2sccc2c(=O)n1-c1ccccc1,2.6,-13,5.1,22,-0.1%,-20%,.
O=C(O)/C=C/C(=O)N1Cc2cc3ccccc3nc2C1,0.6,3,7.1,-7,1.4%,5%,-11%
CNC(=O)c1ccccc1S(=O)c1ccccc1C#N (configuration not stated),1.4,1,6.9,9,1.3%,21%,-1.7%
COc1ccc(C(=O)NCc2ccc(-c3nc4ccccc4s3)cc2)cc1,0.3,4,-1.1,9,-0.8%[38.3 µM],-5%,-18%
CCCOc1ccc(N2C(=O)CC(N(Cc3ccc(S(N)(=O)=O)cc3)C(=O)CC)C2=O)cc1 (configuration not stated),-0.5,-18,3.2,8,-1.4%,6%,-1.2%
O=C(N/N=C(\CC(=O)c1cccs1)C(F)(F)F)c1cccnc1,0.2,5,19,-8,-1.5%,19%,-0.3%
CCN(C(=O)CN1C(=O)NC2(CCc3ccccc32)C1=O)C1CCCCC1 (configuration not stated),-0.6,3,.,-13,-1.4%,.,0.6%
CCOc1cc(S(=O)(=O)N(CC)CC)ccc1Br,0.9,-10,-4.3,11,0.5%,9%,-2.7%
Cc1onc(-c2ccccc2)c1C(=O)Nc1ccc(S(=O)(=O)N2CCCC2)cc1,0.0,-14,-4.0,-2,0.9%,0%,-0.3%
COc1cccc(NC(=O)CCc2c(C)nc3ncnn3c2C)c1,-0.9,.,.,-7,1.3%,.,-0.1%
CCOc1ccc(Nc2sc(C(=O)c3cccc(OC)c3)c(N)c2S(=O)(=O)c2ccccc2)cc1,1.1,.,.,13,-0.4%,.,-5.1%
CCC(C)c1ccc(NC(=O)C2CCN(c3ncccn3)CC2)cc1 (configuration not stated),0.4,-26,3.1,-11,-1.3%,13%,-8.2%
COc1ccc(CN(C)c2ccc(-c3nc(-c4ccc(OC)c(OC)c4)no3)cc2[N+](=O)[O-])cc1,0.2,.,.,56,1.4%,.,-1.4%
COc1ccccc1-n1c(=O)n(C)c2c(C(N)=O)nc(-c3cc(OC)c(OC)c(OC)c3)nc21,1.2,.,.,9,-1.2%,.,-3.6%
SMILES,TRPML1 agonist,TRPV1 potentiator,Menin-MLL FL inh,TRPML1 inh,PINK1 expr mod,Sfp inh,ClpP mod
CN1/C(=C\C(=O)c2ccco2)C(C)(C)c2ccccc21,3.0,-9,?,1,-0.7%[38.3 µM],?,-1.6%
CCOCCSc1nc2c(c(=O)[nH]c(=O)n2C)n1CCCc1ccccc1,0.0,-3,-1.9,30,-3.4%,24%,-1.6%
O=C(COC(=O)c1cc([N+](=O)[O-])ccc1N1CCCC1)Nc1ccccc1OC(F)F,-0.5,3,.,-4,-0.7%,.,-0.9%
Cc1ccccc1CNC(=O)C1=Cc2ccccc2OC1,-0.9,.,.,11,-0.1%,.,-3.1%
Cn1c(=O)c2c(nc(NN=C3CCCCC3)n2C)n(C)c1=O,-0.9,-12,0.8,13,-1.1%,-25%,.
CCC(CC)NC(=O)CON=C1c2ccccc2-c2ccccc21,1.1,-15,2.7,-1,?,16%,-7.0%
COc1ccc(N2CCN(C(=O)c3ccc4c(c3)N(Cc3cc(C)ccc3C)C(=O)c3ccccc3S4=O)CC2)cc1 (configuration not stated),-0.8,.,.,-1,3.0%,.,-0.5%
Cc1ccc(-c2nc(C3CCCN(S(=O)(=O)c4ccc(C(F)(F)F)cc4)C3)no2)cc1 (configuration not stated),1.7,-12,1.0,9,1.4%,12%,-3.1%
CC(=O)Nc1ccc(NC(=O)CSc2nccn2Cc2ccc(Cl)cc2)cc1,-0.4,-13,4.5,-8,1.7%,8%,-0.7%
Cc1nc(N2CCN(S(=O)(=O)c3cccs3)CC2)c2c(-c3ccccc3)c(C)sc2n1,-0.2,.,.,67,0.5%,.,-1.8%
CCCN(CCC)CCNC(=O)CN1C(=O)COc2ccc(S(=O)(=O)N3CCOCC3)cc21,0.4&0.5,25,2.7,-9&14,-2.2%&2.8%,7%,-2.0%&-2.4%
CC(=O)N1c2ccc(S(=O)(=O)NCCC(=O)NCc3ccc(F)cc3)cc2CC1C (configuration not stated),-0.1,0,-0.6,-24,-2.2%,15%,0.0%
CCCOc1ccc(C2/C(=C(/O)c3ccc(F)cc3)C(=O)C(=O)N2CCCN(C)C)cc1 (configuration not stated),-0.1,-3,-0.1,-3,0.0%,4%,-1.2%
Cc1onc(-c2ccccc2Cl)c1C(=O)NNC(=O)c1cccc(F)c1,0.7,4,-2.2,39,-0.9%,11%,.
Cc1ccc(C2(C(F)(F)F)N=C3Sc4cc(C)cc(C)c4N3C(=O)N2)cc1 (configuration not stated),-0.4,1,1.7,-12,2.5%,5%,-1.7%

# Screening data deposited in PubChem by National Center for Advancing Translational Sciences (NCATS).

# Compounds were not picked by outcome; about 4.4% have a hit in one of these screens.
